High-throughput results (PubChem)
FGF22 binding: shifts melting point of recombinant human FGF22; hit rate 1.5% among 340,000; recombinant FGF22 thermal shift, SYPRO orange fluorescence; percent of sucrose octasulfate shift, DMSO zero; AID 651658; calls only at 9.99 µM; Q9HCT0;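 active = melting point raised past a set limit in the mean and every replicate; inconclusive = no clear call; three in four hits are not shown here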
Target sequence (Q9HCT0 whole entry, looked up): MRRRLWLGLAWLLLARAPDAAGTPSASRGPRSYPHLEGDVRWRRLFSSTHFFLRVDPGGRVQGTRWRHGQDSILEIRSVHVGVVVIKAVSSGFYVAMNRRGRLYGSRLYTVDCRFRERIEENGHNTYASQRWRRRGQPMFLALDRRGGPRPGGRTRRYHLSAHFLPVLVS
Vif A3G: inhibitors of Vif binding to APOBEC3G peptide, primary screen, biochemical, TR-FRET, GST-Vif 1-94, biotin-A3G peptide, dose response retest (AID 1117319). hit rate 0.57% among 260,000. inhibition, %; hits with a dose series show IC50 in µM. TR-FRET GST-Vif / biotin-A3G peptide binding; higher % means a stronger effect; test concentration not given here; strong numbers were not always called active;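 active = above the screen mean plus three standard deviations and confirmed in dose response; inconclusive = results disagree or hit not tested in dose response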;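 also: Vif residues 1-94 fused to GST binding biotinylated APOBEC3G peptide 110-148; 0% = full assay without inhibitor and 100% = GST in place of GST-Vif; retest series ran down from 100 µM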
RanGTP-Impb inh: disruptors of Ran-importin-beta complex formation – biochemical, FRET, CFP-Ran, YFP-importin-beta, homogeneous, primary screen. cell-free CFP-Ran/YFP-importin-beta FRET ratio. inhibition, % (no concentration beside the values). hit rate 1.1% among 300,000;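 active = most replicates above 15%; inconclusive = exactly half above 15%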;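 also: 0% = DMSO wells and 100% = Ran loaded with GDP instead of GTP; wells of about 40 µL received 100 nL stock; the first replicate is given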
Ecoli growth: E. coli growth inhibition. Escherichia coli growth, OD600, 23 h; active compounds read low. OD600 absorbance (test concentration not listed). hit rate 0.21% among 330,000. AID 1053175;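 active = OD600 absorbance below the run mean of sample wells minus 3.6 SD, in any replicate, cut at about 0.56 in these data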;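 also: stock transfer was 300 nL into about 60 µL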
HNF4A DNA FP: change in binding of human HNF4 alpha to DNA. P41235. HNF4a-FITC DNA binding, fluorescence polarization, 1 h. activity change, % at 10 µM. hit rate 0.3% among 360,000. AID 1224865; in the data active = activity change above about 30%, passing the limit was not always enough;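 also: controls were the assay level and a saturating level of protein; the project sought stronger binding though the title names inhibitors; some compounds called inactive have numbers as strong as hits; positive values seem to mean higher polarization but the record does not say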
AF4-AF9 inh: inhibitors of human MLL-AF4/AF9 interaction; AlphaScreen, biotin-AF4 peptide binding to FLAG-AF9; hit rate 0.47% among 350,000; inhibition, % at 10 µM; P42568;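 active = every replicate reaching a set inhibition limit, whatever the replicate mean, cut at about 25% in these data; inconclusive = mean inhibition reaches that limit but some replicates miss it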;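 also: 0% = plate neutral control median and 100% = total signal loss; the record names both 10 and 1 µM as test concentration; the first replicate is given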
Target sequence (P42568 whole entry, looked up): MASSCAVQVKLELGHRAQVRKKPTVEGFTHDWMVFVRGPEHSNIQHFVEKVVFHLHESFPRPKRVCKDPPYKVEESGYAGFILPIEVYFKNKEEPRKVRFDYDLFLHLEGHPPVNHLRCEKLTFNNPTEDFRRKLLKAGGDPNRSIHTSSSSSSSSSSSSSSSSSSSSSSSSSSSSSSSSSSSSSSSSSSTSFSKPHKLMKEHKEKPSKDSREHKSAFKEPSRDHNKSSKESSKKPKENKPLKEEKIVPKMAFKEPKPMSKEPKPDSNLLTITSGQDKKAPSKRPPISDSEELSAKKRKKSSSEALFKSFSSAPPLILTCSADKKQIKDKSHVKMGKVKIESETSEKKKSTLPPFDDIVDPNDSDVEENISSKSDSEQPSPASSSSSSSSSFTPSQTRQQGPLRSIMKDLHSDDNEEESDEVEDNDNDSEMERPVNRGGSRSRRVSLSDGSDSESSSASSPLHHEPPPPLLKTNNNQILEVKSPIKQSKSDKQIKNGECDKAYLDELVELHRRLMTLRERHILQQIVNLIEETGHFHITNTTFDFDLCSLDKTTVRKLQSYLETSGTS
UCH37 inh: blocks the human deubiquitinase UCH37; Q9Y5K5; purified proteasome/UCH37, Ub-AMC cleavage fluorescence; inhibition, % (no concentration beside the values); hit rate 0.33% among 330,000;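 active = mean of two replicates above 20%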;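 also: 0% = compound-free wells with enzyme and 100% = wells lacking proteasome; stock transfer was 100 nL into about 20 µL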
Target sequence (Q9Y5K5 whole entry, looked up): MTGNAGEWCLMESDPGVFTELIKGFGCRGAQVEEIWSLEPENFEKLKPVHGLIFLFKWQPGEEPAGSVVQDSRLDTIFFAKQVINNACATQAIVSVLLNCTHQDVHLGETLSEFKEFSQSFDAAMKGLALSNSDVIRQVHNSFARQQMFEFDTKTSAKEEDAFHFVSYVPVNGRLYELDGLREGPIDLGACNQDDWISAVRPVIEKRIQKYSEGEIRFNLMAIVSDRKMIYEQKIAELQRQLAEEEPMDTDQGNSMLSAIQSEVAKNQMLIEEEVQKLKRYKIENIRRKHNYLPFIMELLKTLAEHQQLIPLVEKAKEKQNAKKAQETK
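Schedule: 30 min plus 25 min, room temperature / Material: human UCH37 within purified proteasomes / Technique: AMC fluorescence intensity at 355/460 nm / Buffer or medium: pH 7.4 Tris-HCl (50 mM) with ovalbumin, ATP-MgCl2, DTT / Controls: wells without proteasome as full block, compound-free enzyme plus substrate as uninhibited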
Numbers without * were called inactive; i = inactive; ? = inconclusive; . = not tested or not shown; & = joins results of further samples. Not all compounds are listed. The share of hits here may be higher or lower than overall.

SMILES	FGF22 binding	Vif A3G	RanGTP-Impb inh	Ecoli growth	HNF4A DNA FP	AF4-AF9 inh	UCH37 inh
Cc1c(N2C(=O)c3ccccc3C2(O)c2ccccc2)c(=O)n(-c2ccccc2)n1C (centres undefined)	i	4%	4.5	0.7	1.9	?	2.8
COC(=O)c1c(NC(=O)COC(=O)CNC(=O)c2cccc(OC(F)F)c2)sc(C)c1C	i	-1%	.	.	-0.7	-0.4	.
Cc1cccc(-n2cc(CN3CCN(C(=O)c4ncn[nH]4)CC3)c(-c3cccc(F)c3)n2)c1	i	0%	1.0	0.71	4.0	0.8	1.0
CCCOc1ccc(-c2nnn(CC(=O)c3c[nH]c4ccccc34)n2)cc1	.	2%	5.6	0.68	11	.	-1.8
CC(O)[C@H](NC(=O)C1CCN(C(=O)[C@H](Cc2ccccc2)NC(=O)OC(C)(C)C)CC1)C(=O)O (some centres undefined)	i	-1%	4.1	0.66	1.5	-1.3	4.4
CC(C)(C)S(=O)N1Cc2cc(C(=O)N3CCc4ccccc4C3)nc(-c3cccc(-c4ccncc4)c3)c2[C@H]1CCO (some centres undefined)	i	.	.	.	17	6.3	.
Nc1nc(SCC(=O)Nc2c(Br)cc([N+](=O)[O-])cc2Br)n[nH]1	i	-1%	5.5	0.68	-3.5	-1.2	4.5
Cc1ccc(C(=O)N(CN2CCCC2=O)c2ccc(F)cc2)cc1	.	27%	0.3	0.69	1.7	.	4.6
Nc1ccc(C(=O)N2N=C(c3ccccc3)CC2(O)C(F)(F)F)cc1 (centres undefined)	i	6%	?	0.67	0.8	-4.0	-13
C#CCNC(=O)C1=C[C@@H](C)[C@H](CCCO)[C@@H](OCC)O1	i	.	-2.4	.	8.5	-3.7	-1.0
CCc1ccc2[nH]c(=O)c(CN(CCCO)C(=O)NCc3ccccc3)cc2c1	.	?	-2.7	0.69	1.4	.	-7.3
O=C(CSc1nnc(-c2ccccc2)o1)OCc1ccccc1	.	27%	-3.8	0.72	0.9	.	-0.8
O=C1CN(C(=O)c2cc([N+](=O)[O-])ccc2Cl)C(c2ccccc2)c2cc(F)ccc2N1 (centres undefined)	.	.	-0.8	0.69	-1.0	.	1.2
COc1ccc([C@@H]2CC=C(C(=O)O)[C@H](c3ccc(F)cc3)N2S(=O)(=O)c2ccc(Cl)cc2)cc1	i	.	.	.	-2.1	3.0	0.3
CC(=O)O/N=C/c1c(N2CCOCC2)n(C)c2ccccc12	.	74%	0.2	.	-1.0	.	.
C[C@H](CO)N1C[C@H](C)[C@@H](CN(C)CC2CCCCC2)Oc2ccc(NC(=O)Cn3cnnn3)cc2C1=O	i	.	.	.	-0.2	1.3&0.4	3.7
CC1(C(=O)NC2CCCCCC2)CCC(=O)N1Cc1ccc2c(c1)OCO2 (centres undefined)	.	?	?	0.66	2.0	.	1.7
Nc1nc(-c2ccccn2)nc(N)c1Cc1c(F)cccc1Cl	.	2%	?	0.54	0.0	2.8	-0.3
COc1ccc(OC)c(-c2cc(C(=O)N/N=C(\C)c3cccnc3)c3ccccc3n2)c1	i	.	-7.8	.	6.8	1.2	.
Cn1nnc(NC(=O)c2ccc(Br)o2)n1	i	.	5.3	0.71	-1.4	-1.5	-9.4
COc1ccccc1NC(=O)C(C)N1C(=O)c2ccccc2C1=O (centres undefined)	i	.	-1.0	0.67	4.2	0.2	0.5
COc1ccccc1N1CCN(C(=O)CCc2ccc(S(=O)(=O)NCC(C)C)cc2)CC1	.	2%	2.2	0.71	2.0	.	0.0
CC(=O)Nc1ccc(S(=O)(=O)Nc2ccc(S(=O)(=O)N3CCCC3)cc2)cc1	i	?	0.2	0.66	2.0	-5.6	0.1
O=S(=O)(O)c1ccc(N=NNc2ccc(Br)cc2)cc1	i	-2%	-3.4	0.66	-2.0	-7.4	20
O=C(CC1c2ccccc2Oc2ccccc21)NCc1ccco1	.	-3%	-4.9	0.7	-1.7	.	0.4
Next section:
SMILES	FGF22 binding	Vif A3G	RanGTP-Impb inh	Ecoli growth	HNF4A DNA FP	AF4-AF9 inh	UCH37 inh
Cc1noc(NC(=O)c2ccccc2)c1C#N	.	24%	-2.9	0.77	1.2	.	-0.3
CC(=O)N1CC=CC1(C)C(=O)NCc1cc(F)cc(C(F)(F)F)c1 (centres undefined)	i	-4%	-4.4	0.69	-2.1	11	4.7
CN(CCc1ccccn1)c1ncnc2[nH]ncc12	.	7%	.	0.73	-2.4	.	-8.5
CCn1c(CNC(=O)COc2ccc(C(C)C)cc2)nnc1SCC(=O)NC1CCCCC1C (centres undefined)	.	0%	-3.4	0.69	2.7	.	1.2
O=C(NCCN1CCCC1)c1ccc(Br)cc1	i	-2%	6.7	0.61	-3.4	-0.5	4.6
CCCC(O)(CCC)C(=O)NN(C(=O)OC)c1ccccc1	.	14%	.	0.69	-2.1	.	6.1
CCC(=O)N/N=C/c1ccc(-c2ccc(Cl)cc2)o1	.	-6%	3.6	.	3.6	3.5	.
COc1ccc(CC(=O)Nc2cccc(-c3nnc(-c4ccco4)o3)c2)cc1	.	-3%	-6.5	0.72	4.3	.	-2.9
CC1CCCC/C1=N\NC(=S)NCCc1ccccc1 (centres undefined)	i	3%	0.0	.	3.6	6.4	.
COc1ccc(OC)c(C2=NOC(C(=O)Nc3ccc4c(c3)OCCO4)C2)c1 (centres undefined)	i	-1%	1.2	0.68	-0.3	-1.7	-2.0
CCCn1c(=S)[nH]c2cc(C(=O)N3CCc4ccccc43)ccc2c1=O	.	4%	2.5	0.72	1.8	.	3.3
Cc1cc(N(C)C)c(C#N)c(N2CCCCC2)n1	.	-2%	4.0	0.76	0.7	.	-4.0
Cc1cc(C(=O)NNC(=O)c2ccc(Cl)cc2)c2ccccc2n1	i	-4%	.	0.63	2.0	0.4	3.1
COc1ccc(Cc2nc3ccc(C(=O)NC(C)Cc4ncccc4C)cc3o2)cc1OC (centres undefined)	i	.	-1.8	0.74	2.6	-3.7	5.0
CC(=O)Oc1ccccc1C(=O)OCCN=C1NS(=O)(=O)c2ccccc21	i	.	-3.3	0.66	0.8	0.7	3.3
COc1ccc(C2CC(c3cccs3)=NN2c2ccc(C=O)cc2)cc1 (centres undefined)	i	.	-48	0.68	.	-21	-135
COc1ccc(N2CCN(C(=O)c3sc4ncn(CC(=O)N5CCCCC5)c(=O)c4c3C)CC2)cc1	i	.	1.7	0.7	-1.8	1.2	2.5
O=C(c1ccco1)N1CCN(C2CN(Cc3ccc([N+](=O)[O-])cc3)S(=O)(=O)C2)CC1 (centres undefined)	i	2%	.	.	1.8	1.1	.
Cn1cccc1Cc1nnc(SCC(=O)Nc2ccc3c(c2)OCO3)n1CCc1ccccc1	i	?	-0.6	0.74	-1.9	11	2.7
O=C(NC(=S)Nc1c(F)cc(F)cc1Br)c1ccc2c(c1)OCCO2	i	3%	-0.4	.	-4.3	0.2	.
CC1CCN(C(=O)COC(=O)c2ccc3c(c2)C(=O)N(Cc2ccco2)C3=O)CC1	i	9%	.	0.63	-0.1	-3.0	0.6
CCOc1cc(C(=O)Nc2ccc([N+](=O)[O-])cn2)cc(OCC)c1OCC	i	.	2.6	0.7	-5.5	8.2	4.7
Cc1nc(COC(=O)c2ccc(S(=O)(=O)N3CCCC3)cc2)cs1	.	3%	2.5	0.74	0.9	.	2.0
Cc1c(Oc2ccc(C(F)(F)F)cc2[N+](=O)[O-])ccc2c3c(c(=O)oc12)CCC3	.	-13%	1.6	0.65	0.8	.	-43
CC1(C(=O)OCC(=O)Nc2cc(S(=O)(=O)N3CCOCC3)ccc2Cl)CC1(Cl)Cl (centres undefined)	i	.	.	0.67	-1.5	?	-0.1
Carrying on.
SMILES	FGF22 binding	Vif A3G	RanGTP-Impb inh	Ecoli growth	HNF4A DNA FP	AF4-AF9 inh	UCH37 inh
CN(CC(O)COc1ccc(OCC(O)CN(C)C2CCCCC2)cc1)C1CCCCC1 (centres undefined)	.	6%	0.5	0.73	2.0	.	0.6
C=CCN(CC=C)C(=O)c1ccccc1NC(=O)c1ccccc1C	.	-3%	2.9	0.78	2.0	.	3.2
Cn1c(N)c(S(=O)(=O)N2CCN(c3ccccc3F)CC2)c(=O)n(C)c1=O	i	.	-3.1	0.71	3.2	-3.6	-0.6
CCOC(=O)C1C(c2cccc(Cl)c2Cl)NC(=O)NC1(O)C(F)(F)F (centres undefined)	.	17%	3.2	0.69	1.2	.	2.0
Cc1ccc(NC(=O)CNCc2ccc(Cl)cc2Cl)cc1S(=O)(=O)N(C)C	i	.	-0.4	0.65	1.6	1.3	0.3
COCCNC(=O)C1CC(=O)N(c2ccc(F)c(Cl)c2)C1 (centres undefined)	i	.	3.4	0.73	-0.1	4.1	4.4
CC1Cn2c(nc3sc4c(c3c2=O)CCC4)N1CCO (centres undefined)	.	19%	-17	0.68	-1.4	.	-8.2
O=C(NNS(=O)(=O)c1ccccc1[N+](=O)[O-])c1cccnc1	.	3%	1.1	0.7	-3.9	0.5	0.8
Cc1nnc(C)n1/N=C/c1ccc(C(C)C)cc1	.	-2%	1.3	.	1.0	-27	.
Cc1ccn2c(C(=O)NNC(=O)Nc3ccc(Cl)cc3)c(C)nc2c1	i	.	.	0.69	-2.4	-1.5	2.6
CC(C)(C)c1ccc(S(=O)(=O)NC(=O)C2(C)CCN2C(=O)CC2CC2)cc1 (centres undefined)	i	.	.	.	0.1	-1.9	.
N#Cc1ccc(C(=O)Nc2nc3ccccc3[nH]2)cc1	i	.	8.4	0.68	2.9	-0.8	-14
COc1ccc(/C=C/c2nc(S(=O)(=O)c3ccccc3)c(N(C)C)o2)cc1OC	i	.	1.8	0.7	-3.6	3.5	-169
Nc1nc(NCC(=O)O)nc(NC2CCCCC2)c1[N+](=O)[O-]	i	3%	-1.6	0.68	46*	1.4	13
COc1ccc(-n2ncc3c(NCc4ccccn4)ncnc32)cc1	.	76%	-2.9	0.66	4.2	.	0.9
Cc1ccc(O)c(C=Nc2cc(C)ccc2O)c1	.	.	0.4	0.6	3.6	.	1.6
O=C1CCc2ccc(NS(=O)(=O)c3ccc(F)cc3)cc2N1	i	-1%	-2.0	0.69	-1.5	0.7	-7.3
COc1ccc(N(CC(=O)NCc2cccnc2)S(=O)(=O)c2ccc(C)c([N+](=O)[O-])c2)cc1	.	10%	3.5	0.68	-2.0	1.0	-0.7
O=C(CCc1ccccc1Cl)Nc1cc2c(cc1C(=O)O)OCCCO2	i	-7%	.	0.69	-2.5	-4.4	0.9
Cc1cc(C)cc(NC(=S)N2C3CCCC2CC(NC(=O)C2CC2)C3)c1 (centres undefined)	i	.	4.4	0.69	0.8	2.8	0.3
Cc1ccc(C)c(NC(NC(=O)c2ccccn2)C(Cl)(Cl)Cl)c1 (centres undefined)	i	.	3.3	0.64	1.6	-0.4	0.6
COc1cc(OC)c(OC)cc1CN1CCN(C(=O)CC(C)C)CC1	i	.	2.1	0.65	2.9	-4.3	2.2
O=c1c2[nH]c3ccccc3c2nc2n1CCCS2	i	?	-2.8	0.64	1.9	-4.6	0.6

Arranged by SMILES length (ascending): part of the list above
SMILES	FGF22 binding	Vif A3G	RanGTP-Impb inh	Ecoli growth	HNF4A DNA FP	AF4-AF9 inh	UCH37 inh
O=c1c2[nH]c3ccccc3c2nc2n1CCCS2	i	?	-2.8	0.64	1.9	-4.6	0.6
COc1ccc(-n2ncc3c(NCc4ccccn4)ncnc32)cc1	.	76%	-2.9	0.66	4.2	.	0.9
COc1cc(OC)c(OC)cc1CN1CCN(C(=O)CC(C)C)CC1	i	.	2.1	0.65	2.9	-4.3	2.2
O=C(CCc1ccccc1Cl)Nc1cc2c(cc1C(=O)O)OCCCO2	i	-7%	.	0.69	-2.5	-4.4	0.9
Cc1ccc(NC(=O)CNCc2ccc(Cl)cc2Cl)cc1S(=O)(=O)N(C)C	i	.	-0.4	0.65	1.6	1.3	0.3
